Bioassay records (PubChem BioAssay)
ClpP mod: qHTS Assay for Activators of ClpP | 340,000 compounds, 1.9% hits | AID 651965, 2013 | purified B. subtilis ClpP, FRET peptide cleavage, 20 min | Potency, µM (doses to about 57.5 µM), inactives show at the top dose activity change, negative = active; active = well fitted falling curve with a large enough effect; inconclusive = small, poorly fitted or top-dose-only effect; inactive = no such curve, though single readings can be large or run the other way; also: the source files actives as falling curves though it sought activators and does not explain the sign; nearly all actives have a fitted effect of over 65% in size; many hits overshoot -100%
Target sequence (P80244 whole entry, looked up): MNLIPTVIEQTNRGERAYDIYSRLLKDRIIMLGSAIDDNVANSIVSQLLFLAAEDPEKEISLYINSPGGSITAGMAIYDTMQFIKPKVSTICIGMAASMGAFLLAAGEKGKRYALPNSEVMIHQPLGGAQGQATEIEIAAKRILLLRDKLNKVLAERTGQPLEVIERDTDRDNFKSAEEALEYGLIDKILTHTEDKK
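ClpP 10 microg/mL final, pH 8 Tris/KCl buffer with BSA, glycerol, Tween-20; compound pinned in; FRET-FV substrate; RT 20 min; Ex320/Em430; ΔFRET vs ADEP 5.8 microM, DMSO, no enzyme.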
* hit, by the source's call; ? = inconclusive; & = joins results of further samples. Potency is read from the fitted curve at half-maximal effect. Not all compounds are listed; the hit share may differ from the screen's.

SMILES | ClpP mod
Cc1ccc(C(c2nnnn2Cc2ccccc2)N2CCN(Cc3ccncc3)CC2)cc1 (stereo not drawn) | 2.2%
CCOC(=O)[C@]12CCCC=C1N(Cc1ccc(Cl)cc1Cl)C(=O)[C@H](CC(=O)NCC1CCCCC1)C2 | 1.1%
OCC[C@@H]1C[C@H](O)[C@@H](O)[C@]2(OCc3cc(Cl)ccc32)O1 | -1.0%
COc1ccc(OC)c(CN2C(=O)CSCC2(C)C(=O)NC(C)C)c1 (stereo not drawn) | 0.1%
S=C(SSC(=S)N1CCOCC1)N1CCOCC1 | 0.5%
Fc1ccc(-c2nc3c(Cl)cc(C(F)(F)F)cn3c2Cc2ccsc2)cc1 | -11%
CCCNC(=O)C1(C)CCN(Cc2csc3ccccc23)C1 (stereo not drawn) | -4.1%
CC1(C(=O)NS(=O)(=O)c2ccccc2Cl)CCN1C(=O)CCc1ccccc1 (stereo not drawn) | -3.2%
Cc1ccc2c(/C=C/c3c[nH]c4ccccc34)ccnc2c1C | -11%
COc1cccc(-c2cnc3c(NC=O)cc(-c4ccoc4)cn23)c1 | -9.1%
CC1(Oc2ccc(Cl)cc2)CCN(Cc2csc3ccccc23)C1 (stereo not drawn) | -5.9%
CC(O)(c1cccc(F)c1)c1nc(/C=C/c2ccccc2)cs1 (stereo not drawn) | -18%
COC(=O)[C@]12CCCCC=C1N(Cc1ccc(Cl)cc1Cl)C(=O)[C@H](CC(=O)NCc1ccccc1)C2 | -1.0%
O=C1NC[C@@H](CCCCN2C[C@H](Cc3ccc(O)cc3)N(CCc3ccc(O)cc3)C(=O)C2=O)N(Cc2ccccc2)C1=O | -2.4%
Cc1ccccc1S(=O)(=O)NC(=O)C1(C)CCN1C(=O)Cc1ccc(C(C)(C)C)cc1 (stereo not drawn) | 0.8%
CC1(C(=O)NS(=O)(=O)c2cccc(F)c2)CCN1C(=O)CCc1ccc(Cl)cc1Cl (stereo not drawn) | 0.5%
COc1ccc(F)cc1-c1cc(C(=O)Nc2ccc(NC(C)=O)cc2)[nH]n1 | -12%
CCCCNC(=O)C(NC(=O)c1cccs1)C(=O)c1ccccc1 (stereo not drawn) | 0.1%
Cc1ccc(S(=O)(=O)N2CCC(=O)N([C@H](COCc3cccc(C)c3)C(C)C)CC2)cc1 | 1.0%
O=C(Nc1cccc(C(=O)N2CCOCC2)c1)C1CCCCC1 | -1.7%
CCOC(=O)C1(C)CCN1C(=O)c1ccc2c(c1)CCO2 (stereo not drawn) | -0.4%
O=C1NC[C@@H](CCCCN2C[C@H](Cc3ccc(O)cc3)N(Cc3ccccc3)C(=O)C2=O)N(CCc2ccc(O)cc2)C1=O | -2.0%
COCCNc1nc(NCCNC(C)=O)c2sc(-c3ccccc3)cc2n1 | 4.0%
CCCC(=O)N1CCCC1(C)C(=O)NCCc1ccccn1 (stereo not drawn) | 0.8%
O=C(NCc1ccccc1Cl)[C@H]1CCCN1C(=O)[C@H]1CCCN1C(=O)c1ccccc1 | 0.1%
N#Cc1ccc(NC(=S)N2CCC3CC2c2cc(-c4ccc5c(c4)OCO5)ccc23)cc1 (stereo not drawn) | 1.5%
COC(=O)c1ccc(Cn2c(C)c(C(=O)NCc3cccc([N+](=O)[O-])c3)sc2=O)o1 | 1.1%
COCCNc1nc(Nc2ccccc2Cl)c2sccc2n1 | -17%
C=CCNc1nc(-c2sc(NC(=O)C(C)(C)C)nc2C)c(-n2cc(-c3ccccc3)nn2)s1 | -6.5%
CCOC(=O)[C@]12CCC=C1N(Cc1ccco1)C(=O)[C@H](CC(=O)N1CCSCC1)C2 | -3.4%
COc1ccc(C(C)(NC(C)=O)c2nc(-c3cccc(C(=O)O)c3)cs2)cc1 (stereo not drawn) | -1.4%
COC(=O)c1ccc2nc(-c3ccc(OC)c(OC)c3)c(Cc3ccc(OC)cc3C)n2c1 | 5.0%
CC[C@H]1O[C@H](C)CC2=C1C(=O)OC(C)(C)O2 | 0.8%
CCCNC(=O)C1(C)CCN(Cc2cc(C)n(C)n2)C1 (stereo not drawn) | -0.2%
Cc1noc(C)c1-c1ccc(C(=O)Nc2ccccc2)c2occc12 | 0.0%
CCOC(=O)C1(C)CCCN(C(=O)c2ccc(C)c(F)c2)C1 (stereo not drawn) | -0.9%
CNc1nc(NCCOc2ccccc2)c2sccc2n1 | -12%
Cc1cc(C(=O)N2CCC2(C)C(=O)O)c(C)o1 (stereo not drawn) | -4.3%
CCN1CCN(C(c2ccccc2)c2nnnn2C(C)(C)C)CC1 (stereo not drawn) | -2.5%
Cc1cccc(C)c1-n1nnnc1C(CCc1ccccc1)N1CCN(C/C=C/c2ccccc2)CC1 (stereo not drawn) | 2.8%
COc1ccccc1Cc1c(-c2ccc(OC)c(OC)c2)nc2cc(C)c(Br)c(C)n12 | -20%
CC(C)c1ccc(NC(=O)c2cc(-c3cc(F)ccc3OCC3CCCO3)n[nH]2)cc1 (stereo not drawn) | -11%
CC1(C(=O)NS(=O)(=O)c2ccccc2Cl)CCN1C(=O)CC1CCCCC1 (stereo not drawn) | -0.8%
CC(=O)c1ccc([N+](C)(C)C)cc1 | -1.4%
CCc1nc2ccc(C(=O)N3CCN(S(=O)(=O)CC)CC3)cn2c1N(CC)CCN(C)C | -1.3%

A few values from the list.
Cc1cc(C(=O)N2CCC2(C)C(=O)O)c(C)o1 (stereo not drawn) – ClpP mod: -4.3%
Cc1cccc(C)c1-n1nnnc1C(CCc1ccccc1)N1CCN(C/C=C/c2ccccc2)CC1 (stereo not drawn) – ClpP mod: 2.8%

Following part
SMILES | ClpP mod
CCOC(=O)[C@]12CCCC=C1N(Cc1cccc3ccccc13)C(=O)[C@H](CC(=O)N1CCCC1)C2 | -1.6%
CCCCN1C(=O)C(=O)NC[C@@H]1Cc1ccc(O)cc1 | -0.9%
CNc1cc(-c2ccc(O)cc2C)ncn1 | -4.2%
CCCCCCCCCCCCCCCC[n+]1ccc(CC(O)c2c(C)[nH]c3ccccc23)c2ccccc21 (stereo not drawn) | -1.3%
CCC(c1nc2ccccc2[nH]1)n1c(=O)c(-c2ccccc2)nc2ccccc21 (stereo not drawn) | -12%
CC1(C(=O)NCCC#N)CCN1C(=O)C1(c2ccccc2)CC1 (stereo not drawn) | -29%
CCCCC[C@@H](C)N1C[C@@H](COCc2ccccc2)Oc2cc(N3CC[C@H](N(C)C)C3)ccc2S1(=O)=O | -12%
c1ccc(-c2cc3nc(NCC4CC4)nc(NCC4CCCCC4)c3s2)cc1 | 20µM*
CC(C)N1C(=O)c2ccccc2NC(=O)C1C(=O)NCc1ccccc1 (stereo not drawn) | -2.1%
O=C(c1ccc2c(=O)n(Cc3ccc4c(c3)OCO4)c(=S)[nH]c2c1)N1CCN(Cc2ccccc2)CC1 | -0.7%
Clc1cccc(CNc2ccn3nc(-c4ccco4)cc3n2)c1 | 4.9%
O=C(C[n+]1cccc(Br)c1)c1ccc2ccccc2c1 | -1.5%
CN(CCO)c1cccc2c1S(=O)(=O)N[C@H](Cc1ccccc1)CO2 | 0.4%
CCC(=O)N[C@H]1CC[C@@H](CCn2cc(C3CC3)nn2)O[C@@H]1CO | -2.2%
CCc1nc2ccc(C(=O)NCCCn3ccnc3)cn2c1N(C)Cc1cc2ccccc2s1 | -5.2%
COc1ccc(/C=C/c2ccnc3ccccc23)cc1 | -12%
CCN(CCC(=O)O)c1ccc(/C=C/c2ccnc3ccccc23)cc1 | -2.6%
Cc1ccc(S(=O)(=O)NC(=O)C2(C)CCN2C(=O)c2ccc(C(F)(F)F)nc2C)cc1 (stereo not drawn) | 0.1%
CC(=O)NC(c1ccccc1)c1nc(-c2cccnc2)cs1 (stereo not drawn) | 0.0%
Cc1ccc2cc(NC(=O)C3(C)CCN3CC(C)C)ccc2n1 (stereo not drawn) | -0.4%
CCOC(=O)C1(C)CCN1C(=O)c1ccc(OC)cc1 (stereo not drawn) | 0.7%
COC(=O)[C@]12CCCCC=C1N(Cc1ccc3c(c1)OCO3)C(=O)[C@H](CC(=O)NCc1cccs1)C2 | -1.5%
COCCCNC(=O)C[C@@H]1C[C@@]2(C(=O)OC)CC(C)(C)CC=C2N(Cc2ccc3c(c2)OCO3)C1=O | 0.2%
CNc1cncc(-c2ccc(O)cc2C)n1 | 5.0%
COc1ccc(Cn2nnnc2C(c2ccccn2)N2CCN(c3ccc(O)cc3)CC2)cc1 (stereo not drawn) | -8.9%
CC(=O)N1C[C@@H](CO)[C@@H](N(C)C(=O)C(C)(C)C)C[C@H]1c1ccccc1 | -0.6%
Cc1ccc(C)c(CC(=O)N2CCCC(c3cc(C(=O)Nc4ccccc4Cl)no3)C2)c1 (stereo not drawn) | -8.3%
NC(Cc1ccc(C(F)(F)F)cc1)c1csc(Nc2cc(Oc3ccccc3)ncn2)n1 (stereo not drawn) | -6.2%
COc1ccc(C(=O)Nc2ncnc3nc[nH]c23)cc1 | -9.1%
CCCCN1C(=O)C(CC(=O)NCc2cccc3ccccc23)CC(C(=O)N2CCCCCC2)=C1C (stereo not drawn) | -2.8%
CCc1nc2ccc(C(=O)NCCOc3ccc(OC)cc3)cn2c1N(CC)CCN(C)C | 1.1%
COc1ccc(C(=O)N2CCCC(C)(C(=O)NS(=O)(=O)C3CC3)C2)c(OC)c1 (stereo not drawn) | -0.5%
CCCCN(CCCC)Cc1cc(=O)oc2ccc3ccccc3c12 | ?
COc1ccc(Cn2cc(CN3CCc4onc(-c5ccc(Br)cc5)c4C3=O)nn2)cc1 | -0.5%
CC(=O)Nc1ccc(CNc2nc(NC(C)C)nc3ccsc23)cc1 | -27%
CCCCc1c(Cc2ccccc2)ncn1CCc1ccccc1OC | -2.9%
CC(=O)c1ccc(Nc2nc(C(N)Cc3ccc(Cl)cc3)cs2)cc1 (stereo not drawn) | -25%
Cc1cc(F)ccc1-c1cc(C(=O)NCC2CCCCC2)[nH]n1 | -22%
COC(=O)[C@@]12C[C@@H](CC(=O)NCC34CC5CC(CC(C5)C3)C4)C(=O)N(CCc3ccc(OC)c(OC)c3)C1=CCC(C)(C)C2 | 3.6%
CC1=C(C(=O)N2CCCCCC2)CC(CC(=O)NC2CCCC2)C(=O)N1Cc1ccc(F)cc1 (stereo not drawn) | 0.7%
CC(C)Oc1ccc(F)cc1-c1cc(C(=O)NCc2ccc(F)cc2)[nH]n1 | -14%
O=C1NC[C@@H](CCCCN2CCN(CCC3CCCCC3)C(=O)C2=O)N(CCC2CCCCC2)C1=O | 1.4%
COC(=O)C1(C(=O)OC)C[C@H](/C=C/c2ccccc2)N(Cc2ccccc2OC)[C@@H]1c1cccs1 | -4.1%&-1.3%
COc1ccccc1-c1ncn(Cc2cccc(-c3ccccc3)c2)c1-c1cc(C)cc(C)c1 | ?
CC(=O)Nc1cccc(-c2ccnc3c2CC(C)(C(=O)Nc2cccnc2)O3)c1 (stereo not drawn) | -13%
CC(=O)Nc1ccc(/C=C/c2ccccn2)cc1 | -12%
O=C(NCc1ccccc1)c1cc(C2CCCCN2C(=O)c2cccs2)on1 (stereo not drawn) | -1.9%
Cc1c(C(=O)NCc2ccc(Cl)c(Cl)c2)sc(=O)n1Cc1ccc(S(C)(=O)=O)cc1 | -3.4%
Cc1ccc(C(NC(=O)C2CCN(Cc3ccc(Oc4ccccc4)cc3)CC2)c2ccccn2)cc1 (stereo not drawn) | 0.0%
O=C(C[C@@H]1CC[C@H](NC(=O)c2ccc3c(c2)OCO3)[C@@H](CO)O1)NCc1ccc(F)cc1 | -7.8%
Nc1ncnc2c1ccn2[C@H]1CN(Cc2ccc3c(c2)OCO3)C[C@@H](COC(=O)c2ccccc2)O1 | 0.8%
Cc1ccc(S(=O)(=O)N2[C@@H](Cc3ccccc3)CO[C@H]2CC(=O)c2cccs2)cc1 | 0.0%
CCCCOc1ccc(C(=O)NO)cc1 | 1.0%
CCCCNC(=O)C1c2ccccc2OCC(=O)N1CCc1ccccc1 (stereo not drawn) | -2.3%
COCCNC(=O)C1CCCN(Cc2cccc(Cl)c2)CC1 (stereo not drawn) | -0.4%
Cn1ncc2c(=S)[nH]c(=S)[nH]c21 | -1.8%
CCOC(=O)C1CCCN(C(=O)c2ccc(C)c(F)c2)CC1 (stereo not drawn) | 0.5%
CS(=O)(=O)N1Cc2cc(C(=O)NCC3CCCCC3)nc(-c3cccc(-c4cccnc4)c3)c2[C@H]1CCO | 0.3%
CCCNC(=O)C1(C)CCCN(CCOc2ccccc2)C1 (stereo not drawn) | 0.0%
CSc1ncccc1C(=O)N1CCC(C)(C(=O)O)C1 (stereo not drawn) | 0.5%

Among those listed so far, 14 have a thiophene ring, fused or not:
SMILES | ClpP mod
Fc1ccc(-c2nc3c(Cl)cc(C(F)(F)F)cn3c2Cc2ccsc2)cc1 | -11%
CCCNC(=O)C1(C)CCN(Cc2csc3ccccc23)C1 (stereo not drawn) | -4.1%
CC1(Oc2ccc(Cl)cc2)CCN(Cc2csc3ccccc23)C1 (stereo not drawn) | -5.9%
CCCCNC(=O)C(NC(=O)c1cccs1)C(=O)c1ccccc1 (stereo not drawn) | 0.1%
COCCNc1nc(NCCNC(C)=O)c2sc(-c3ccccc3)cc2n1 | 4.0%
COCCNc1nc(Nc2ccccc2Cl)c2sccc2n1 | -17%
CNc1nc(NCCOc2ccccc2)c2sccc2n1 | -12%
c1ccc(-c2cc3nc(NCC4CC4)nc(NCC4CCCCC4)c3s2)cc1 | 20µM*
CCc1nc2ccc(C(=O)NCCCn3ccnc3)cn2c1N(C)Cc1cc2ccccc2s1 | -5.2%
COC(=O)[C@]12CCCCC=C1N(Cc1ccc3c(c1)OCO3)C(=O)[C@H](CC(=O)NCc1cccs1)C2 | -1.5%
CC(=O)Nc1ccc(CNc2nc(NC(C)C)nc3ccsc23)cc1 | -27%
COC(=O)C1(C(=O)OC)C[C@H](/C=C/c2ccccc2)N(Cc2ccccc2OC)[C@@H]1c1cccs1 | -4.1%&-1.3%
O=C(NCc1ccccc1)c1cc(C2CCCCN2C(=O)c2cccs2)on1 (stereo not drawn) | -1.9%
Cc1ccc(S(=O)(=O)N2[C@@H](Cc3ccccc3)CO[C@H]2CC(=O)c2cccs2)cc1 | 0.0%
